Source: PubChem
Mtb betalactam: beta-lactam sensitization of Mtb H37Rv | M. tuberculosis H37Rv growth with meropenem, percent inhibition; hits of this screen are not shown here | inhibition, % at 25 µM | hit rate 0.27% among 330,000 | AID 434955;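 active = about 74% or more and at least 40 points above the plate without the antibiotic, then above 30% in a dose series; inconclusive = first-round hits that could not be retested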;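 also: growth measured after seven days incubation then overnight dye step; 0% = bacteria only wells and 100% = bacteria with antibiotic; twin plates without the antibiotic show which effects depend on it; some results filed as inactive read as strong as hits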
Mtb H37Rv: M. tuberculosis H37Rv growth inhibitors, H37Rv strain (AID 1626); M. tuberculosis H37Rv growth inhibition; higher % means a stronger effect; one-dose inhibition, % at 10 µM; IC50 in µM for titrated hits; hit rate 0.95% among 220,000;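 active = confirmed in a dose series; inconclusive = inhibition above 80% but not taken into the dose series; inactive = below 80% or under 30% at every dose of the series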;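 also: bacteria incubated seven days before Alamar blue readout; 0% = bacteria only wells and 100% = bacteria with antibiotic wells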
YopH inh: inhibitors of Yersinia enterocolitica YopH tyrosine phosphatase; fluorescence Ex485/Em525; inhibition, %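 (about 10 µM by stock and volumes)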; hit rate 0.16% among 140,000; AID 898;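 active = inhibition of 50% or more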;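 also: controls were vehicle for no effect and minimum signal wells for full effect; inactives centre near -20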
RecA splice inh: blocks M. tuberculosis RecA intein splicing | P9WHJ3 | cell-free RecA intein splicing, fluorescence | inhibition, %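 (about 9 µM by stock and volumes)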 | hit rate 0.75% among 290,000; in the data active = inhibition above about 30%; inconclusive = no clear call, values can overlap the other calls;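 also: 0% = vehicle wells and 100% = reference inhibitor control wells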
Target sequence (P9WHJ3 whole entry, looked up, canonical isoform): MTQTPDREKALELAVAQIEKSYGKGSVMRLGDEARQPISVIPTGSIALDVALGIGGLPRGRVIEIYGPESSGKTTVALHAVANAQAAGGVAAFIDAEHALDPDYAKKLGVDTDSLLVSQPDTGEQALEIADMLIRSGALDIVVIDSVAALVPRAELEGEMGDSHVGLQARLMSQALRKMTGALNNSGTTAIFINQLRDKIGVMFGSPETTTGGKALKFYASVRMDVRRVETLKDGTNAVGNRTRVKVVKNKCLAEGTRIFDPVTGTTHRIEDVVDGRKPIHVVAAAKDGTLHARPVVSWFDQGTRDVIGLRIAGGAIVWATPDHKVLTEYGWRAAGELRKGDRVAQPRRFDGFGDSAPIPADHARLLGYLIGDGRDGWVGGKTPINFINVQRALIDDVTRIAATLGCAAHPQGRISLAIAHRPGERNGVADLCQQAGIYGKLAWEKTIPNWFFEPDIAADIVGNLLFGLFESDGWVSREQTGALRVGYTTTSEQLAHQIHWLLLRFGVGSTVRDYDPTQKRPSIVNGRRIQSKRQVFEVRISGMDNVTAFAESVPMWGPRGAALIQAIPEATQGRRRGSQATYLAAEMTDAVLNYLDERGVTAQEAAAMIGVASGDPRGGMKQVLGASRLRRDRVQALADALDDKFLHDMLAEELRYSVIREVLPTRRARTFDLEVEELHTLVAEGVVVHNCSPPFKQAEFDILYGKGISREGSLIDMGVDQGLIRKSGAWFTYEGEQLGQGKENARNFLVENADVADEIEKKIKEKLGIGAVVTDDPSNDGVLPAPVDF
Arbovirus inh: arbovirus infection inhibition; arbovirus infection cell-based antiviral screen; inhibition, % at 10 µM; hit rate 0.37% among 200,000;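 active = inhibition from about 30%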;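 also: bluetongue infection of BSR cells; cell survival read as ATP light after 72 h; 0% = infected wells without compound and 100% = uninfected wells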
Arbovirus inh repeat: recorded beside Arbovirus inh, whose call it bears; inhibition, %; measured here: 10K subset replicate screen; many hits read low in the repeat;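 first of two repeat runs on a subset; 0% = infected and 100% = uninfected wells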
* = called active by the depositor; i = inactive; ? = inconclusive; / = no result given.

Preview:
SMILES	Mtb betalactam	Mtb H37Rv	YopH inh	RecA splice inh	Arbovirus inh	others
CCOc1cc(C)nc(N2CCCC(C(=O)NCc3ccccc3F)C2)n1 (centres undefined)	-4	3%	-2	-3.0	3
Clc1ccc(SCCOCCN2CCc3ccccc3C2)cc1	2	2%	/	2.6	3

Main list (from the top)
SMILES	Mtb betalactam	Mtb H37Rv	YopH inh	RecA splice inh	Arbovirus inh	others
CCOc1cc(C)nc(N2CCCC(C(=O)NCc3ccccc3F)C2)n1 (centres undefined)	-4	3%	-2	-3.0	3
Clc1ccc(SCCOCCN2CCc3ccccc3C2)cc1	2	2%	/	2.6	3
CCOC(=O)CCCCNCc1ccccc1	-9	-1%	-35	-2.9	-3
CCOCCCn1cc(C(=O)c2cc(Br)ccc2O)cc(C#N)c1=O	-7	7%	/	1.2	1
CCN(c1ccc(NC(=O)CN2C(=O)NC3(CCOc4ccccc43)C2=O)cc1)C(C)C (centres undefined)	3	-2%	-4	-12	-20
Cn1cccc1Cc1nnc(SCC(=O)NCc2ccc3c(c2)OCO3)n1CCc1ccccc1	-8	-7%	3	3.5	-4
CC(C)(C)c1ncc(S(=O)(=O)c2ccc(C(F)(F)F)cn2)c(N)n1	-3	-6%	/	/	/
N#Cc1ccc(-c2cccnc2)nc1SCc1ccc(Cl)cc1Cl	8	0%	-33	3.0	-21
CC1(C(=O)Nc2ccccc2)Cc2ccccc2C(=O)O1 (centres undefined)	-7	-3%	/	-1.6	5
CC(C)(C)n1cnc2cc(NC(=O)c3ccco3)ccc21	11	/	/	-0.1	/
COc1ccc(CCN2C(=O)CSC2c2cccc([N+](=O)[O-])c2)cc1OC (centres undefined)	-5	/	/	1.4	/
Nc1c(S(=O)(=O)c2ccccc2)csc1C(=O)O	0	-6%	/	-0.4	8

Brought forward from above: 2 entries; new compounds follow.
SMILES	Mtb betalactam	Mtb H37Rv	YopH inh	RecA splice inh	Arbovirus inh	others
COc1ccc(CCN2C(=O)CSC2c2cccc([N+](=O)[O-])c2)cc1OC (centres undefined)	-5	/	/	1.4	/
Nc1c(S(=O)(=O)c2ccccc2)csc1C(=O)O	0	-6%	/	-0.4	8
CN1CCN(c2sc(S(C)(=O)=O)nc2S(=O)(=O)c2ccc(Cl)cc2)CC1	-1	/	/	-0.9	/
COc1ccc(NC(=O)Cn2nnc(C(=O)NCc3ccco3)c2N)c(OC)c1	2	-13%	-7	-3.3	3
Cc1ccc(N2C(=O)c3cccc4c([N+](=O)[O-])ccc(c34)C2=O)c2cccnc12	0	-3%	/	-4.2	/
CC(=O)c1cccc(NC(=O)C2=CC(c3ccc4c(c3)OCO4)=NS(=O)(=O)N2C)c1	-2	/	/	-2.4	/
COc1cccc(CNS(=O)(=O)/C=C/c2ccc(OC)c(OC)c2)c1	3	5%	/	/	-1
O=C(N/N=C/c1ccccn1)c1sc2ccccc2c1Cl	85	?	/	4.3	/
Cn1cc(S(=O)(=O)N2CCCC2)cc1C(=O)NCc1ccc(Cl)cc1	1	/	/	0.3	/
CCOC(=O)C1CCN(c2nc3ccccc3nc2C(C#N)C(=O)OCCOC)CC1 (centres undefined)	-6	0%	-8	-6.8	-9
CSc1ccc(/C=N/N2CCN(Cc3ccc(Cl)cc3)CC2)cc1	-9	0%	/	1.2	1
S=C(Nc1ccc(Cl)cc1)N1CCOCC1	-2	0%	12	-1.2	/
CC(Oc1cccc(Cl)c1)C(=O)NC1CC(C)(C)NC(C)(C)C1 (centres undefined)	3	/	/	1.1	/
CCCc1nc2ccc(NC(=O)NCCC(=O)OCC)cc2c(=O)n1Cc1ccc(Cl)cc1	-9	5%	-9	-2.9	5
COC(=O)c1ccc(COc2ccccc2/C=C/C(=O)c2ccc(OCC(=O)O)cc2)cc1	26	/	/	2.1	/
Cc1ccc(NC(=O)c2cc3ccccc3o2)cc1S(=O)(=O)N(C)C	/	-5%	3	/	0
COC(=O)c1ccccc1NC(=O)CN1C(=O)C2CCCN2c2ncc(Cl)cc21 (centres undefined)	-8	-10%	-27	-3.0	2
COc1ccc(NC(=O)C2(c3ccc(NC(=O)c4ccc(OC)c(OC)c4)cc3)CCCC2)cc1	4	-3%	-43	-0.4	-9
COc1cccc(C(=O)NCC(=O)OCC(=O)Nc2ncc(Cl)cc2Cl)c1	-7	5%	/	8.5	19
Cc1cccc(OCC(=O)Nc2ccccc2N2CCN(C(=O)C(C)C)CC2)c1C	0	-5%	4	1.7	8
Cc1cc(C)c2oc(C(=O)N(Cc3cccs3)C3CCS(=O)(=O)C3)cc(=O)c2c1 (centres undefined)	-3	-3%	/	1.0	/
CSc1cc(C)n(-c2ccc(Cl)cc2)c(=S)c1C(C)=O	-1	1%	8	1.1	11
CC(NC(=O)C1CCN(S(=O)(=O)c2ccc3c(c2)NC(=O)CO3)CC1)c1ccccc1 (centres undefined)	-4	/	/	-0.3	/
CCOC(=O)C1CCCN(C(=O)c2cc(=O)c3ccccc3o2)C1 (centres undefined)	1	-3%	-62	/	0
CCN(CC)c1ccc(NC(=O)c2cccc(OC)c2)c(C)c1	13	-7%	51*	1.3	-21
Cn1c(NC(=O)c2ccccc2)cc(=O)n(C)c1=O	-2	-1%	-28	2.5	0	Arbovirus inh repeat=4
CC(=O)Nc1ccc(C(=O)N/N=C/c2ccccc2OCc2ccccc2)cc1	-2	-6%	/	0.1	-12
Cc1ccnc(NC(=O)c2cccc(S(=O)(=O)N3CCOCC3)c2)c1	-9	/	/	-1.1	/
CCOc1ccc(/C=N/NC(=S)NC2CC3C=CC2C3)cc1 (centres undefined)	-12	0%	/	-0.2	/
CCOC(=O)c1c(NC2OC(=O)c3c2ccc(OC)c3OC)sc(C(=O)OC(C)(C)C)c1C (centres undefined)	22	1%	12	1.8	11
CC(C)NC(=O)/C=C/C(=O)O	5	-3%	/	/	6
COc1ccc(N2C(=O)CC(NCC#N)C2=O)cc1 (centres undefined)	-3	/	/	-2.3	/
Cc1ccc(NC(=O)c2cc(NC(=O)/C=C\C(=O)O)ccc2N2CCCCC2)cc1	-2	/	/	48*	/
O=C(NCCO)C(=O)NCC1OCCCN1S(=O)(=O)c1ccc2c(c1)OCCO2 (centres undefined)	-8	/	/	0.3	/
COc1ccc(C(=O)/C=C/c2ccccc2C(F)(F)F)cc1	9	6%	-16	-1.8	-29
Cc1c2cccn2cc[n+]1C	-5	3%	-15	-3.9	0
Cc1cc(C)c(S(=O)(=O)c2ccc(Cl)cc2)c(Cl)n1	-7	1%	/	4.8	13
CCC(CC)c1nnc(NC(=O)c2ccc(S(=O)(=O)N3CCc4ccccc4C3)cc2)s1	?	3%	-28	2.7	2

Sorted by length of the SMILES (largest number first): part of the list above
SMILES	Mtb betalactam	Mtb H37Rv	YopH inh	RecA splice inh	Arbovirus inh	others
CC(NC(=O)C1CCN(S(=O)(=O)c2ccc3c(c2)NC(=O)CO3)CC1)c1ccccc1 (centres undefined)	-4	/	/	-0.3	/
Cc1cc(C)c(S(=O)(=O)c2ccc(Cl)cc2)c(Cl)n1	-7	1%	/	4.8	13
O=C(N/N=C/c1ccccn1)c1sc2ccccc2c1Cl	85	?	/	4.3	/

(continued)
SMILES	Mtb betalactam	Mtb H37Rv	YopH inh	RecA splice inh	Arbovirus inh	others
CCOc1cc(/C=N/N=C(\N)c2nonc2N)cc(Br)c1OCc1cccc2ccccc12	0	-8%	2	-3.3	-32
O=C(Nc1ccccc1C(=O)N1CCOCC1)c1ccc(CSc2ccccc2)cc1	-10	9%	/	0.1	9
Oc1ccc(/C(Cc2ccc3ccccc3n2)=N\Nc2ccccc2)c(O)c1	-2	42%	/	47*	-9
COc1cc(SC)ccc1C(=O)OCC(=O)NC1CCCCC1	6	4%	/	-1.3	-2
O=C(CSc1nc(O)c(Cc2ccccc2)c(=O)[nH]1)Nc1nc2c(s1)CCCC2	50	1%	/	0.5	-3
CCN1CCC(=NNC(=O)CC23CC4CC(CC(C4)C2)C3)CC1	-3	4%	-13	4.9	-4
CCCCOc1ccc(CNC(=O)NS(=O)(=O)c2ccc(OCC(C)C)cc2)cc1	-1	-10%	-7	-4.0	19
O=C(CN1C2CCCC1CC(NC(=O)c1ccccc1)C2)Nc1nccs1 (centres undefined)	5	-5%	-29	0.3	5
COc1ccc(/C=N/NC(=O)c2c(C)nc3ccc(Cl)cn23)cc1OC	1	/	/	-0.5	/
CCN(CC(=O)NCc1cccs1)C(=O)c1ccc(S(=O)(=O)Nc2ccccc2)cc1	-6	/	/	-3.4	/
Cc1cc2occ(CC(=O)Nc3nnc(C4CC4)s3)c2cc1C	3	2%	-22	/	2
CC(=O)NNC1=Nc2ccccc2N(C)C(C)C1 (centres undefined)	23	2%	-22	-1.6	2
CC(SCc1ccccc1)C(=O)N/N=C/c1cc2c(cc1Br)OCO2 (centres undefined)	-3	-10%	-20	3.2	9
Cc1ccc2nc3c(cc(C(=O)NCC4CCCO4)c(=N)n3CC3CCCO3)c(=O)n2c1 (centres undefined)	2	/	/	i	/
Cc1ccccc1-c1nc(CS(=O)(=O)CC(=O)NCCc2ccccc2)c(C)o1	-9	/	/	-1.0	/
O=C(NCCN1CCOCC1)c1ccc2c(c1)N(Cc1ccccc1)CCS2	-10	0%	-43	-10	-5	Arbovirus inh repeat=-1
Cc1ccc(CNC(=O)CSCC(=O)O)cc1	-12	-7%	-39	-2.1	7
O=C(/C=C/c1ccccc1)OCCN=C1NS(=O)(=O)c2ccccc21	-4	/	/	0.0	/
COc1cccc(C(=O)OCc2cc(=O)oc3c(C)c(C)ccc23)c1OC	6	/	/	6.4	/
CCOCCCNC(=O)CCN1C(=O)c2ccccc2Sc2ncccc21	-4	/	/	0.1	/
Cc1nc(S(=O)(=O)N(C)Cc2ccccc2)c(C#N)c(C)c1Cl	5	-8%	-34	-2.8	-1
Cc1ccc(NC(=O)Cn2ccsc2=N)c([N+](=O)[O-])c1	82	8%	/	6.7	8
O=C(COc1ccccc1Cl)N1CCCC(N2CCN(c3ccc(F)cc3)CC2)C1 (centres undefined)	8	/	/	0.5	/
Cc1ccc(N(C)S(=O)(=O)c2nnc(NC(=O)c3ccco3)s2)cc1	5	/	/	3.9	/
CC1(C)CC(=O)C2=C(C1)N(N1CCOCC1)C(N)=C(C#N)C2c1cccnc1 (centres undefined)	-10	4%	6	-3.2	0
COc1ccccc1N/C=C/c1onc(C)c1[N+](=O)[O-]	2	6%	/	-2.3	-4
CCOC(=O)N1CCN(C(=S)Nc2ccccc2C)CC1	4	4%	-25	-3.0	-5
CC(C)n1cnc2c(N(C)c3ccccc3)nc(N(CCN(C)C)Cc3ccccc3)nc21	89	?	/	5.4	/
CCCC(CCC)=NNC(=O)c1ccccc1F	55	1%	/	-1.9	9
O=C(NC1CCN(C(=O)c2cccs2)CC1)c1ccccc1	-10	-11%	/	/	/
Cc1ccccc1C(=O)NNC(=O)c1ccc2nc[nH]c2c1	-6	/	/	2.8	/
CC(C)N=C1NN=C(c2cccs2)CS1	1	-5%	/	1.9	-6
COc1cccc(CNC(=O)Cc2ccc(-c3ccccc3)cc2)c1	4	/	/	-3.1	/
COc1ccc2[nH]c(=O)c(CN(Cc3ccc4c(c3)OCO4)C(C)=O)cc2c1	-2	1%	5	-1.1	-2
CSc1nncn1/N=C/c1ccc2c(c1)OCO2	6	-11%	-17	-2.0	-8
C/C(=N\O)C(=O)NCCN1CCCCC1	8	-1%	-22	1.3	2
CN1CCN(c2ccc(NC(=O)c3ccc(-c4ccc(Br)cc4)o3)cc2)CC1	1	?	/	16	-29
CC1Cc2ccccc2N1C(=O)COc1nc2ccccc2nc1N1CCOCC1 (centres undefined)	-3	/	-4	-7.2	1
CC(CN1C(C)CCCC1C)OC(=O)c1cccc(F)c1 (centres undefined)	-3	/	/	-1.4	/
Cc1onc(-c2ccccc2Cl)c1C(=O)Nc1ccc(N2CCOCC2)cc1	-3	1%	-11	0.5	0
Cc1cccc(C)c1NC(=O)N1CC=CCC1	1	/	/	-2.8	/
NC(=O)c1ccc(NC(=O)C2COc3ccccc3O2)cc1 (centres undefined)	4	/	/	0.0	/
COc1ccc(-c2csc(C3=C(O)CN(Cc4ccc(S(N)(=O)=O)cc4)C3=N)n2)cc1OC	5	-1%	-52	-4.0	1
Cc1cccc(OCC(=O)Nc2nnc(S(=O)(=O)N3CCCCCC3)s2)c1	-3	/	/	2.1	/
CCOC(=O)C1CCN(C(=O)C2c3ccccc3C(=O)N(C)C2c2ccc(OC)cc2)CC1 (centres undefined)	-4	-17%	-1	-1.4	0	Arbovirus inh repeat=-3
CC1=CC(C)(C)NC(=S)N1c1cccc2cc(S(=O)(=O)O)ccc12	-3	-7%	/	-0.3	/

Of the compounds above, 2 contain a CF3 group:
SMILES	Mtb betalactam	Mtb H37Rv	YopH inh	RecA splice inh	Arbovirus inh	others
CC(C)(C)c1ncc(S(=O)(=O)c2ccc(C(F)(F)F)cn2)c(N)n1	-3	-6%	/	/	/
COc1ccc(C(=O)/C=C/c2ccccc2C(F)(F)F)cc1	9	6%	-16	-1.8	-29

Not all compounds are listed, so the mix of outcomes need not match the whole.
